HIV Env fusion: inhibitors of HIV Env-mediated cell fusion; HeLa-JRFL Env/CEM21 cell fusion, luciferase; AID 651610; inhibition, % at 12.3 µM; 1.1% of 360,000 active;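 active = mean replicate inhibition score of at least 50 and every replicate individually at or above 50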;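 also: 0% = plate neutral controls and 100% = maraviroc near 300 nM; one replicate is shown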
Yeast UUG start: alters start codon recognition fidelity in yeast; S. cerevisiae UUG-firefly luciferase reporter, luminescence/redox ratio; activity score, % at 18.7 µM; 0.13% of 350,000 active; AID 602363;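 active = replicate mean at a twofold rise or more, about +100% in these data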;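 also: firefly luciferase made from a UUG start codon reports start codon fidelity; reporter light over untreated wells divided by growth signal over untreated wells; some hits fall short of that in this replicate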
An asterisk follows results filed as active; [ ] = dose if it differs, or a comment.

Each structure is followed by: HIV Env fusion	Yeast UUG start
- COCCNC(=O)C[C@@H]1CC[C@@H]2[C@H](COC[C@H](O)CN2S(=O)(=O)c2ccccc2F)O1
→ 2.8[16.7 µM]	-8.7
- C[C@H]1CN([C@@H](C)CO)S(=O)(=O)c2ccc(C3=CCCC3)cc2O[C@H]1CN(C)Cc1cccc(C(=O)O)c1
→ 14.3[16.7 µM]	5.0
- C[C@@H]1CN([C@H](C)CO)C(=O)c2cc(NC(=O)Cc3ccccc3)ccc2O[C@@H](C)CCCCO[C@@H]1CN(C)Cc1ccc(C(=O)O)cc1
→ 2.6[16.7 µM]	16.9
- COCC(=O)Nc1ccc2c(c1)C(=O)N(C)[C@@H]1CC[C@H](CC(=O)Nc3cn(C)nc3C)O[C@H]1CO2
→ 12.3[16.7 µM]	-23.5
- C[C@@H]1CCCCO[C@@H](CN(C)S(=O)(=O)c2cccs2)[C@H](C)CN([C@H](C)CO)C(=O)c2cc(NS(=O)(=O)c3ccccc3)ccc2O1
→ -42.7[16.7 µM]	-11.4
- Cc1ccc(S(=O)(=O)Nc2ccc3c(c2)C(=O)N([C@@H](C)CO)C[C@H](C)[C@@H](CN(C)C(=O)Nc2ccccc2)OCCCC[C@@H](C)O3)cc1
→ -86.8[16.7 µM]	-6.6
- C[C@@H]1CN([C@@H](C)CO)C(=O)c2cc(-c3cncnc3)cnc2O[C@@H]1CN(C)C(=O)Nc1ccc2c(c1)OCO2
→ -16.2[16.7 µM]	1.4
- O=C(C[C@H]1C=C[C@@H](NS(=O)(=O)c2ccccc2)[C@@H](CO)O1)NCCN1CCCCC1
→ 4.9[16.7 µM]	-9.7
- O=C(NCC[C@@H]1CC[C@H](NS(=O)(=O)c2cccc(F)c2)[C@H](CO)O1)Nc1cc(F)ccc1F
→ 7.7[16.7 µM]	-25.9
- O=C(C[C@H]1C[C@@H]2c3cc(NC(=O)C4CCC4)ccc3O[C@@H]2[C@@H](CO)O1)NCc1cc(F)ccc1F
→ 17.3[16.7 µM]	2.5
- O=C(Nc1ccc2c(c1)OCO2)N[C@H]1CC[C@@H](CCNC(=O)C2CCOCC2)O[C@H]1CO
→ -4.8[16.7 µM]	-5.7
- O=C(C[C@H]1C[C@H]2c3cc(NC(=O)Cc4ccncc4)ccc3O[C@H]2[C@@H](CO)O1)NCc1ccc(-c2ccccc2)cc1
→ -9.0[16.7 µM]	5.2
- C[C@@H]1CN([C@@H](C)CO)C(=O)c2cc(NC(=O)C3CCCCC3)ccc2O[C@@H]1CN(C)C(=O)Nc1ccc2c(c1)OCO2
→ 25.0[16.7 µM]	8.4
- Cc1ccc(S(=O)(=O)Nc2ccc3c(c2)CC(=O)N([C@H](C)CO)C[C@H](C)[C@@H](CN(C)S(=O)(=O)c2ccc(C)cc2)O3)cc1
→ -18.7[16.7 µM]	-9.2
- C[C@H]1CN([C@@H](C)CO)S(=O)(=O)c2ccc(C#CC3CC3)cc2O[C@H]1CN(C)C(=O)C1CCC1
→ 18.6[16.7 µM]	-4.0

A section from the list above:
Each structure is followed by: HIV Env fusion	Yeast UUG start
- COCCNC(=O)C[C@@H]1CC[C@@H]2[C@H](COC[C@H](O)CN2S(=O)(=O)c2ccccc2F)O1
→ 2.8[16.7 µM]	-8.7
- C[C@H]1CN([C@@H](C)CO)S(=O)(=O)c2ccc(C3=CCCC3)cc2O[C@H]1CN(C)Cc1cccc(C(=O)O)c1
→ 14.3[16.7 µM]	5.0

Other records
Each structure is followed by: HIV Env fusion	Yeast UUG start
- CO[C@H]1CN(C)C(=O)c2ccc(NS(C)(=O)=O)cc2OC[C@H](C)N(C(=O)CN(C)C)C[C@@H]1C
→ 2.8[16.7 µM]	-12.3
- C[C@@H]1CCCCO[C@@H](CN(C)Cc2ccccc2)[C@H](C)CN([C@@H](C)CO)C(=O)c2cc(NS(=O)(=O)c3cn(C)cn3)ccc2O1
→ -5.8[16.7 µM]	14.6
- O=C(N[C@@H]1C=C[C@@H](CC(=O)N2CCCCC2)O[C@@H]1CO)c1ccccn1
→ -15.1[16.7 µM]	-16.4
- N#C[C@H]1[C@H](c2ccccc2)[C@@H](CO)N1C(=O)c1cc(Cl)cc(Cl)c1
→ -30.9[16.7 µM]	-2.4
- Cc1noc(C)c1S(=O)(=O)N(C)C[C@H]1Oc2ccc(NC(=O)CCCN(C)C)cc2CC(=O)N([C@H](C)CO)C[C@@H]1C
→ 11.4[16.7 µM]	-1.4
- CN(C)CC(=O)N1[C@@H](C#N)[C@@H](c2ccc(-c3cccc(C(=O)N(C)C)c3)cc2)[C@@H]1CO
→ -4.7[16.7 µM]	21.4
- COc1ccc(S(=O)(=O)Nc2ccc3c(c2)C(=O)N([C@H](C)CO)C[C@H](C)[C@H](CN(C)Cc2ccccc2)OCCCC[C@@H](C)O3)cc1
→ -65.4[16.7 µM]	-1.1
- C[C@@H]1CCCCO[C@@H](CN(C)C(=O)Nc2ccccc2)[C@H](C)CN([C@H](C)CO)C(=O)c2cc(NC(=O)c3ccccc3)ccc2O1
→ -21.8[16.7 µM]	-5.0
- C[C@@H]1CN([C@H](C)CO)C(=O)c2cc(NS(=O)(=O)c3ccc(F)cc3)ccc2O[C@@H](C)CCCCO[C@@H]1CN(C)C(=O)c1ccncc1
→ -95.7[16.7 µM]	1.6
- CC(C)NC(=O)N[C@@H]1CC[C@H](CCNC(=O)C2CC2)O[C@@H]1CO
→ 7.0[16.7 µM]	-4.0
- CN1C(=O)c2cc(NC(=O)c3ccc(F)cc3)ccc2OC[C@@H]2O[C@H](CC(=O)O)CC[C@H]21
→ -4.3[16.7 µM]	10.6
- C[C@@H]1CN([C@@H](C)CO)C(=O)c2cc(C#CCC3CCCC3)cnc2O[C@H]1CN(C)S(=O)(=O)c1cccs1
→ 5.1[16.7 µM]	-2.7
- CNC(=O)C[C@@H]1CC[C@H]2[C@H](COc3ccc(NC(=O)c4ccccc4Cl)cc3C(=O)N2C)O1
→ -3.6[16.7 µM]	-5.6
- C[C@H]1CN([C@@H](C)CO)C(=O)c2cc(-c3cccc(F)c3)cnc2O[C@@H]1CN(C)C(=O)C1CCOCC1
→ 4.8[16.7 µM]	-2.5
- C[C@H]1CN([C@@H](C)CO)S(=O)(=O)c2ccc(C3=CCCCC3)cc2O[C@H]1CN(C)C(=O)c1ccccc1
→ 43.5[16.7 µM]	14.8
- COc1ccc(NC(=O)Nc2ccc3c(c2)C(=O)N([C@H](C)CO)C[C@@H](C)[C@@H](CN(C)CC2CCCCC2)OCCCC[C@H](C)O3)cc1
→ -6.8[16.7 µM]	44.4
- Cc1noc(C)c1S(=O)(=O)Nc1ccc2c(c1)C(=O)N([C@@H](C)CO)C[C@H](C)[C@@H](CN(C)C(=O)NC(C)C)OCCCC[C@H](C)O2
→ -63.4[16.7 µM]	-4.0
- COC(=O)[C@]1(CCS(=O)(=O)c2ccccc2)N=C(c2ccc(OCCCO)cc2)O[C@@H]1c1ccccc1CN=[N+]=[N-]
→ 33.5[16.7 µM]	-2.9
- C[C@@H]1CCCCO[C@H](CN(C)C(=O)Nc2ccc(C(F)(F)F)cc2)[C@H](C)CN([C@@H](C)CO)C(=O)c2cc(NS(C)(=O)=O)ccc2O1
→ 17.9[16.7 µM]	16.1
- COc1ccccc1NC(=O)N[C@@H]1CC[C@H](CCNC(=O)Cc2ccccn2)O[C@@H]1CO
→ 0.8[16.7 µM]	-2.7
- COc1cccc(NC(=O)N(C)C[C@H]2Oc3ncc(/C=C/c4ccccc4)cc3C(=O)N([C@H](C)CO)C[C@@H]2C)c1
→ 25.9[16.7 µM]	12.6
- CN(C)CCCNC(=O)C[C@@H]1CC[C@@H]2[C@@H](COc3ccc(NC(=O)NC4CCCC4)cc3C(=O)N2C)O1
→ -8.8[16.7 µM]	6.1
- C[C@@H]1CN([C@@H](C)CO)C(=O)c2cc(C#CC3(O)CCCC3)cnc2O[C@H]1CN(C)C(=O)Cc1cccnc1
→ -15.6[16.7 µM]	8.3
- CNC[C@H]1OCCCC[C@@H](C)Oc2ccc(NC(=O)Nc3cccc4ccccc34)cc2C(=O)N([C@@H](C)CO)C[C@@H]1C
→ -55.4[16.7 µM]	11.4
- O=C(C[C@@H]1C=C[C@H](NC(=O)c2ccc3c(c2)OCO3)[C@H](CO)O1)NCc1ccc(F)cc1
→ -2.8[16.7 µM]	-5.3
- CC(C)NC(=O)N1[C@@H](C#N)[C@@H](c2ccc(C#CC3CCCC3)cc2)[C@@H]1CO
→ 3.6[16.7 µM]	32.3
- O=C(C[C@@H]1C=C[C@H](NC(=O)NC2CCCCC2)[C@H](CO)O1)NCc1ccccc1
→ -19.1[16.7 µM]	-5.3
- Cc1noc(C)c1NC(=O)N(C)C[C@@H]1Oc2ccc(NS(=O)(=O)c3ccc(F)cc3)cc2CC(=O)N([C@@H](C)CO)C[C@@H]1C
→ -4.6[16.7 µM]	-9.4
- O=C(N[C@H]1CC[C@@H](CCn2cc(C3(O)CCCC3)nn2)O[C@H]1CO)C1CCOCC1
→ -0.3[16.7 µM]	-2.4
- COc1ccc(CN(C)C[C@@H]2Oc3c(NC(=O)c4nc5ccccc5s4)cccc3C(=O)N([C@H](C)CO)C[C@H]2C)cc1
→ 28.1[16.7 µM]	1.6

Compounds listed so far with two or more sulfur atoms, in the order listed:
Each structure is followed by: HIV Env fusion	Yeast UUG start
- C[C@@H]1CCCCO[C@@H](CN(C)S(=O)(=O)c2cccs2)[C@H](C)CN([C@H](C)CO)C(=O)c2cc(NS(=O)(=O)c3ccccc3)ccc2O1
→ -42.7[16.7 µM]	-11.4
- Cc1ccc(S(=O)(=O)Nc2ccc3c(c2)CC(=O)N([C@H](C)CO)C[C@H](C)[C@@H](CN(C)S(=O)(=O)c2ccc(C)cc2)O3)cc1
→ -18.7[16.7 µM]	-9.2
- C[C@@H]1CN([C@@H](C)CO)C(=O)c2cc(C#CCC3CCCC3)cnc2O[C@H]1CN(C)S(=O)(=O)c1cccs1
→ 5.1[16.7 µM]	-2.7

Further compounds:
Each structure is followed by: HIV Env fusion	Yeast UUG start
- CNC[C@@H]1Oc2cc(C#Cc3ccccc3F)ccc2S(=O)(=O)N([C@H](C)CO)C[C@H]1C
→ 21.1[16.7 µM]	6.2
- C[C@@H]1CCCCO[C@H](CN(C)Cc2ccncc2)[C@H](C)CN([C@@H](C)CO)C(=O)c2cc(NC(=O)Cc3ccccc3)ccc2O1
→ -52.5[16.7 µM]	-5.1
- COc1ccccc1-c1ccc2c(c1)O[C@H](CN(C)C(C)=O)[C@@H](C)CN([C@H](C)CO)S2(=O)=O
→ 9.2[16.7 µM]	0.4
- Cc1ccc(S(=O)(=O)Nc2ccc3c(c2)C(=O)N([C@H](C)CO)C[C@H](C)[C@@H](CN(C)CC2CC2)OCCCC[C@H](C)O3)cc1
→ 0.7[16.7 µM]	14.2
- C[C@H](CO)N1C[C@H](C)[C@@H](CN(C)C(=O)C2CCCCC2)OCCCC[C@H](C)Oc2ccc(NS(=O)(=O)c3cccs3)cc2C1=O
→ -78.9[16.7 µM]	12.2
- CC(C)NC(=O)Nc1ccc2c(c1)C(=O)N([C@H](C)CO)C[C@@H](C)[C@H](CN(C)S(=O)(=O)c1cccs1)OCCCC[C@@H](C)O2
→ 1.1[16.7 µM]	30.5
- C[C@H](CO)N1C[C@H](C)[C@H](CN(C)Cc2ccc(C(F)(F)F)cc2)OCCCC[C@H](C)Oc2ccc(NS(=O)(=O)c3ccccc3)cc2C1=O
→ 17.7[16.7 µM]	6.7
- COCCNC(=O)C[C@H]1C[C@@H]2c3cc(NC(=O)COC)ccc3O[C@@H]2[C@@H](CO)O1
→ -13.9[16.7 µM]	2.2
- COc1ccc(S(=O)(=O)Nc2ccc3c(c2)C(=O)N([C@@H](C)CO)C[C@@H](C)[C@@H](CN(C)C(=O)Nc2ccc(C(F)(F)F)cc2)O3)cc1
→ -37.2[16.7 µM]	-3.4
- O=C(C[C@H]1C[C@H]2c3cc(NC(=O)Cc4ccncc4)ccc3O[C@H]2[C@H](CO)O1)NCc1ccc2c(c1)OCO2
→ 3.0[16.7 µM]	-20.0
- Cc1ccc(S(=O)(=O)Nc2ccc3c(c2)C(=O)N([C@H](C)CO)C[C@H](C)[C@H](CN(C)C)OCCCC[C@H](C)O3)cc1
→ 6.3[16.7 µM]	7.5
- O=C(C[C@@H]1C[C@H]2c3cc(NC(=O)C4CCC4)ccc3O[C@H]2[C@@H](CO)O1)NCc1cc(F)ccc1F
→ 6.8[16.7 µM]	-6.2
- O=C(C[C@@H]1CC[C@@H]2[C@H](COC[C@@H](O)CN2Cc2cccc(Cl)c2)O1)NCC1CCCCC1
→ 17.5[16.7 µM]	-7.3
- COc1ccc(S(=O)(=O)N(C)C[C@H]2Oc3ccc(NC(=O)Nc4c(C)noc4C)cc3CC(=O)N([C@@H](C)CO)C[C@H]2C)cc1
→ -14.5[16.7 µM]	-1.3
- COc1ccccc1S(=O)(=O)N[C@H]1C=C[C@H](CC(=O)N2CCN(C)CC2)O[C@@H]1CO
→ 5.6[16.7 µM]	-7.0
- C[C@@H]1CCCCO[C@H](CN(C)S(=O)(=O)c2ccc(Cl)cc2)[C@@H](C)CN([C@H](C)CO)C(=O)c2cc(NS(C)(=O)=O)ccc2O1
→ 3.5[16.7 µM]	3.4
- C[C@H]1CN([C@@H](C)CO)C(=O)c2cccc(NC(=O)Nc3cccc4ccccc34)c2O[C@@H]1CN(C)S(=O)(=O)c1ccccc1
→ -25.3[16.7 µM]	0.2
- COc1ccccc1CN(C)C[C@@H]1OCc2cn(nn2)CCCC(=O)N([C@H](C)CO)C[C@@H]1C
→ 10.3[16.7 µM]	6.9
- C[C@@H]1CN([C@@H](C)CO)C(=O)c2cc(NS(=O)(=O)c3cccs3)ccc2O[C@@H](C)CCCCO[C@H]1CN(C)S(=O)(=O)c1ccccc1
→ -25.0[16.7 µM]	-3.8
- C[C@H](CO)N1C[C@H](C)[C@H](CN(C)Cc2ccccc2)Oc2c(NC(=O)c3ccc(-c4nccs4)cc3)cccc2C1=O
→ -5.6[16.7 µM]	-3.2

Assay outcomes deposited in PubChem by Broad Institute.

These rows are one share of the data (hit frequency here may not be typical).
